Screening results (PubChem BioAssay)
Menin MLL FP FL: inhibitors of human menin-MLL interaction, wild-type MLL peptide | 290,000 tested, under 10 active | FP activity change, % at 61.4 µM | Fluorescence polarization, fluorescein-MLL peptide displacement from menin; inconclusive = falling polarisation curve, or a change in total fluorescence; inactive = total fluorescence flat and polarisation flat or rising; no compound was filed as active; the % refers to the polarisation; negative = inhibition;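 also: % of control where 0% means no effect; inhibitors lower the polarisation; unlabelled MLL peptide was the positive control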
Sfp PPTase inh: Sfp phosphopantetheinyl transferase inhibition; Q9F4F7; Biochemical Sfp PPTase activity, qHTS; Potency, µM, for inactives: max response, negative = inhibition, usual class: inhibitors; actives 3.5% (n = 310,000); AID 1490; active = well fitted inhibition curve with a large enough effect; inconclusive = small, poorly fitted or top-dose-only effect, or another doubt; inactive = no such curve, though single readings can be large or run the other way;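 also: the enzyme is Sfp with the accession as filed and its product quenches rhodamine fluorescence; potency is read from the fitted curve at half-maximal effect; 0% = enzyme reaction without inhibitor and -100% = no enzyme wells; top concentration of the series not given in the record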
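With Hepes-Na pH 7.6 buffer containing 10 mM MgCl2, Sfp (15 nM) modified BHQ-2-YbbR (12.5 uM) using rhodamine-CoA (5 uM). Two reads 30 minutes apart at 525/598 nm yielded each well's rate.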
CtBP-E1A inh: blocks the CtBP interaction with E1A. AlphaScreen GST-E1A/His-CtBP binding, 1536-well; stronger effect = lower value; control for the full effect not named in the record. activity change, % (test concentration not listed). actives 0.49% (n = 340,000). AID 651724; in the data active means activity change below about -65%; inconclusive means about -30% to -65%; inactive means above about -30%; also: % is scaled to controls: 0 for no effect and ±100 for the full control effect; compound concentration not given in the record
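Homogeneous bead-based format: GST-tagged E1A captured on glutathione donor beads, His-tagged CtBP on nickel acceptor beads; compounds precede bead addition by 2 h at 37 °C.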
TRPV1 PAM: enhances activation of the human vanilloid receptor TRPV1 | actives 0.02% (n = 320,000) | potentiation, % at 8.33 µM | Q8NER1 | TRPV1-expressing cells, Fluo-8 calcium influx, capsaicin EC20 potentiation; host cell line not named in the record; control for the full effect not named in the record; active means potentiation above 80%; inconclusive means 30% to 80%; inactive means below 30%; also: 0% is about no effect
Target sequence (Q8NER1 whole entry, looked up): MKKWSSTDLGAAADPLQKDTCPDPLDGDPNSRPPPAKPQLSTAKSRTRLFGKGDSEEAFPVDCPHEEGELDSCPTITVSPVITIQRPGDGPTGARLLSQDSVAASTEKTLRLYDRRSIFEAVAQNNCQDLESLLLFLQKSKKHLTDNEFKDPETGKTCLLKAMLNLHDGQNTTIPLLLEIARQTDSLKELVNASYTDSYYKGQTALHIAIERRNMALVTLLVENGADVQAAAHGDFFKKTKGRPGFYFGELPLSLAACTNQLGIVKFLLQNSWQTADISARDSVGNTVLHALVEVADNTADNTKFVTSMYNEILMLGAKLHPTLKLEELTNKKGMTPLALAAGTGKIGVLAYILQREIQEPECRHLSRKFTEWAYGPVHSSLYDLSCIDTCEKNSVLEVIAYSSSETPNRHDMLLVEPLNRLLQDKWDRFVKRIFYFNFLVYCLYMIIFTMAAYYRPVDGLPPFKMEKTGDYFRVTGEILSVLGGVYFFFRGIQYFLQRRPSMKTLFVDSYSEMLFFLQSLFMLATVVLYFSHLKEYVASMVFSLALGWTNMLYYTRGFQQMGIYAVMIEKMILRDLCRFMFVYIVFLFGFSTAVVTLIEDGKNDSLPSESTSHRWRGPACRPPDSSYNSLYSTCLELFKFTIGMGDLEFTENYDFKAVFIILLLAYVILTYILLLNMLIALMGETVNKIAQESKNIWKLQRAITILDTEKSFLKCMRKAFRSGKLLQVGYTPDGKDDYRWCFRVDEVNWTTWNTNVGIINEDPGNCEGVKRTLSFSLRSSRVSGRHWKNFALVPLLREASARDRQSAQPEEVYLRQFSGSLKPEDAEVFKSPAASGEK
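TRPV1-expressing cells were cultured overnight at 35.5C and loaded with Fluo-8 calcium dye for 40 to 90 min at room temperature. After a 10 s baseline, compound was added and calcium influx was read kinetically for 3 min (ex 480/em 520 nm).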
ClpP mod: qHTS Assay for Activators of ClpP; purified B. subtilis ClpP, FRET peptide cleavage, 20 min; Potency, µM (titrated, usually from 57.5 µM), without a hit: at the top dose activity change, negative = active; actives 1.9% (n = 340,000); active = well fitted falling curve with a large enough effect; inconclusive = small, poorly fitted or top-dose-only effect; inactive = no such curve, though single readings can be large or run the other way; also: potency is read from the fitted curve at half-maximal effect; the source files actives as falling curves though it sought activators and does not explain the sign; nearly all actives have a fitted effect of over 65% in size; many hits overshoot -100%
Target sequence (P80244 whole entry, looked up): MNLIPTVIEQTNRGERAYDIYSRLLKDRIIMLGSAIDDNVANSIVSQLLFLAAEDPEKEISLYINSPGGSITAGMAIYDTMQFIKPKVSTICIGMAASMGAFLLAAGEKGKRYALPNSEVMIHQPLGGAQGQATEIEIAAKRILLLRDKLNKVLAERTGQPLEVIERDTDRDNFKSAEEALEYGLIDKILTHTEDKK
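FRET quenching reversal measured ClpP activation: 10 microg/mL B. subtilis ClpP at pH 8 with the FRET-FV decapeptide, read at 430 nm after 320 nm excitation. The 20-min minus 0-min signal was scaled between DMSO/no-enzyme wells and ADEP (5.8 microM final).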
gsp ag: agonists of gsp mutant (McCune-Albright syndrome). gsp mutant cells, cAMP HTRF, 30 min; control for the full effect not named in the record. Potency, µM (top dose mostly 76.9 µM), inactives show at the highest dose activation (cAMP increase), actives largely listed as activators. AID 624287. actives 0.13% (n = 340,000); active = well fitted activation curve with a large enough effect; inconclusive = small, poorly fitted or top-dose-only effect, or another doubt; inactive = no such curve, though single readings can be large or run the other way; cell line not stated here;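 also: phosphodiesterase inhibitor Ro 20-1724 added with compounds to block cAMP breakdown; potency is read from the fitted curve at half-maximal effect; nearly all actives have a fitted effect of over 60% in size; about a fifth of the inactives were tested at one dose only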
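Cells in DMEM/10% FBS with G418 were pretreated with compounds in DMSO plus […] (300 uM stock) for 30 min at 37C. cAMP was measured by HTRF (cAMP-d2 plus anti-cAMP antibody-K) after 30 min at room temperature.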
gsp antag: gsp mutant antagonism. Potency, µM (series often up to 76.9 µM), without a hit: at the highest dose activity change, negative = inhibition, hits mostly inhibitors. actives 0.4% (n = 340,000). gsp-mutant cells, cAMP HTRF, 30 min; control for the full effect not named in the record; active = falling curve of any shape with a large fitted effect; inconclusive = falling curve, mostly with a smaller effect; inactive = flat or rising curve; cell line not stated here;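 also: intracellular cAMP measured with PDE inhibitor Ro 20-1724 present during compound exposure; potency is read from the fitted curve at half-maximal effect; % is scaled to controls: 0 for no effect and ±100 for the full control effect; nearly all actives have a fitted effect of over 65% in size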
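Cells in G418 medium, seeded 16-24 h, 37C; buffer exchange to DPBS + 1 mM CaCl2, 0.5 mM MgCl2, 0.05% BSA; cpds in DMSO + […] (300 uM stock), 30 min 37C; HTRF cAMP detection.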
* marks the source's active call; other numbers are inactive results; ? = inconclusive; nt = no result given; [ ] = remark or other dose.

SMILES	Menin MLL FP FL	Sfp PPTase inh	CtBP-E1A inh	TRPV1 PAM	ClpP mod	gsp ag	gsp antag
CCN(c1ccccc1)S(=O)(=O)c1ccc(Cl)c(NC(=O)c2ccc(=O)[nH]n2)c1	nt	nt	-14	4	-7.6%	-40%[inhibitor]	3%
COc1cccc(NS(=O)(=O)c2ccc3c(c2)N(C(C)=O)CCS3)c1	nt	4%	-1	6	1.4%	-32%[inhibitor]	-4%
COc1ccc(C(=O)N/N=C/c2ccc(N3CCOCC3)o2)cc1OC	-2.9	3.5µM*	-17	8	nt	2%	5%
O=C(CSc1ccc(Cl)cc1)NC(=O)NC1CCCC1	nt	nt	12	-18	-1.0%	-8%	-4%
COc1ccc(NC(=O)COC(=O)C2=COCCO2)cc1OC	-5.4	16%	9	7	1.9%	-15%	8%
CCCCNC(=O)/C(C#N)=C/c1ccc(-c2ccc(S(=O)(=O)N3CCOCC3)cc2)o1	nt	2%	-7	3	-5.3%	-1%	-19%
Cc1ccsc1/C=N/NC(=S)NCc1ccccc1	1.8	12%	0	-11	-0.6%	4%[15.4 µM]	7%
COc1cc(NC(=O)NCC2CCN(Cc3ccccc3F)CC2)cc(OC)c1	-4.6	7%	0	-3	nt	-5%	11%
COc1ccc(C(C)=O)cc1CN(C)C	0.4	-6%	-4	3	-3.9%	7%	18%
CCN(CC)S(=O)(=O)c1cc(NC(=O)COC(=O)c2c(C)noc2C)ccc1C	nt	nt	-18	-1	-2.0%	-50%[inhibitor]	-21%
COc1ccc(C(=O)NCCn2nc(C)cc2C)cc1OC1CCN(C(C)=O)CC1	nt	-2%	4	-4	-1.3%	?	16%
O=[N+]([O-])c1ccc2nonc2c1Nc1ccccc1	-7.4	-2%	1	1	0.4%	1%[15.4 µM]	17%
COc1ccc(C(=O)COC(=O)CCCC(=O)NC2CCCCC2)cc1	1.3	14%	3	-9	0.6%	-53%[inhibitor]	8%
COCCN(C(=O)CSc1cc(C)c2ccccc2n1)c1c(N)n(CC(C)C)c(=O)[nH]c1=O	nt	nt	0	-3	-1.0%	1%	7%
CCOc1ccccc1/C=N\Nc1cnn(Cc2ccccc2)c(=O)c1Cl	0.0	5%	2	22	nt	-20%	?
Cc1cc(OCCCn2ccnc2)cc(C(C)C)c1	0.3	-17%	0	-13	-0.8%	-11%	5%
COc1ccc(C(C)NC(=S)NC2CCCCC2)cc1OC (configuration not stated)	nt	2%	-21	10	0.3%	?	6%
COc1cc(/C=N/NC(=O)NC2CCCCC2)ccc1O	2.5	17%	-16	-3	nt	-4%[15.4 µM]	10%
Cc1cccc(NC(=O)c2nc[nH]c2C(=O)NCC(=O)OC(C)(C)C)c1	1.5	14%	nt	-15	-4.3%	?	-8%
COc1ccc(S(=O)(=O)N(C)C)cc1NC(=O)COc1ccc2c(c1)CCC2	nt	nt	1	nt	1.1%	?	nt
CCOC(=O)c1cc2c(ccn2C)n1CC(=O)N(CC)CC	-13	0%	1	3	nt	15%	-4%
CCn1cc(C(=O)O)c(=O)c2cnc(N3CCN(C(=O)Nc4cccc5ccccc45)CC3)nc21	3.8	9%	nt	9	nt	nt	nt
COCCN(CCOC)S(=O)(=O)c1ccc(C(=O)NCCCN2CCOCC2)cc1	4.6	-23%	-1	-9	0.6%	-8%	5%
CC(C)(C)C(=O)C[n+]1ccccc1	0.7	8%	6	-11	1.7%	?	16%
c1ccc(-c2nccnc2-c2ccccc2)cc1	5.4	23%	2	13	nt	-14%[15.4 µM]	2%
COc1ccc(N(C(C)=O)c2nc(C)cc(C)c2C#N)c(OC)c1	-0.6	24%	0	6	nt	28%	13%
COC(=O)c1cc(NS(=O)(=O)c2ccc(N3CCOCC3)c([N+](=O)[O-])c2)cc(C(=O)OC)c1	?	-2%	-8	16	-3.6%	14%	-14%
CC(=O)Nc1cccc(NC=C(C#N)C#N)c1	0.1	-2%	nt	-1	-0.5%	6%	-12%
O=C(C[C@@H]1C/C=C/CC[C@H](Cc2ccc(F)cc2)C(=O)OCCNC1=O)N[C@H](CO)Cc1ccccc1	nt	nt	0	nt	-0.6%	nt	0%
CC(=O)c1ccc(OCC(O)CN2C(C)(C)CC(O)CC2(C)C)cc1 (configuration not stated)	-1.7	-2%	2	-2	0.1%	-32%	9%
CCN(C(=O)CSc1nc2ccccc2n1C)C1CCS(=O)(=O)C1 (configuration not stated)	nt	nt	nt	-7	0.2%	18%	4%
CCOC(=O)/C(Sc1nc(-c2ccccc2)cc(-c2ccccc2)c1C#N)=C(\C)O	7.9	-11%	40	-1	nt	5%	-19%
CCc1cccc(NC(=O)Cn2cc(C=O)c3ccccc32)c1	0.3	14%	nt	-29	-0.9%	10%	-1%
O=C(CSCc1ccc(C(=O)O)cc1)Nc1ccccc1	-0.7	3%	4	-17	nt	-9%	6%
CCOc1ccc(C(=O)NC(=S)Nc2ccccc2N2CCC(C)CC2)cc1[N+](=O)[O-]	3.2	25%	-15	-1	-0.4%	10%	7%
COc1ccccc1N(CC(=O)NC(C)(C)C)C(=O)CCC(=O)Nc1ccccn1	0.6	11%	10	6	1.9%	?	10%
CCC1CCCCN1CCCNC(=O)Cn1cnc2sc(C)c(S(=O)(=O)N3CCC(C)CC3)c2c1=O (configuration not stated)	3.9	19%	-2	-5	1.0%	-8%[15.4 µM]	3%
CCCCC1CCCOC(C(=O)NCCNCCO)(C(F)(F)F)C1 (configuration not stated)	6.0	10%	13	nt	1.3%	-8%	4%
COc1ccc(/C=N\NC(=O)c2ccccc2[N+](=O)[O-])cc1COc1c(F)c(F)c(F)c(F)c1F	-3.9	16%	-3	8	-1.8%	2%[15.4 µM]	-7%
Cc1cc(C)cc(NC(=O)CCn2c(=O)c3cccn3c3ccccc32)c1	nt	?	nt	23	-11%	-3%	-25%
O=C(CSc1ccccn1)N/N=C/C=C/c1ccccc1	-1.9	?	nt	-15	-0.7%	?	-19%
CCOC(=O)c1nnn(-c2nonc2N)c1CNc1ccc(C)c(Br)c1	3.9	10%	7	-8	1.5%	-6%[15.4 µM]	-32%
Cc1ccc2c(CC(=O)Nc3c(C)n(C)n(-c4ccccc4)c3=O)coc2c1	-2.4	-3%	0	5	-2.7%	12%	4%
CCCCn1c(N)c(N(Cc2ccccc2OC)C(=O)COc2cc(C)ccc2Cl)c(=O)[nH]c1=O	nt	nt	-13	0	0.6%	12%	-4%
C#CCOCCOCCOCCNc1nc(N2CCN(C(=O)CCCCCCCCCCNC(=O)[C@H](CCCCN)n3cc(CCCC(=O)O)nn3)CC2)nc(N2CCN(C(=O)CCCCCCCCCCNC(=O)[C@H](CCCCN)n3cc(CCCC(=O)O)nn3)CC2)n1	nt	nt	nt	?	-4.7%	-8%	13%
CCc1ccc(NC(=O)C(=O)N/N=C(\C)CC(=O)Nc2ccccn2)cc1	4.1	0%	-4	10	19%	-6%	15%
Cc1ccc2cccc(SCC(=O)NCC#N)c2n1	2.6	1%	-8	3	28µM*	10%	-4%
CN(C(=S)NC(=O)C12CC3CC(CC(C3)C1)C2)c1ccc(O)cc1	nt	nt	nt	nt	-9.9%	27%	-13%

Single records, as listed above. Order of screens: Menin MLL FP FL	Sfp PPTase inh	CtBP-E1A inh	TRPV1 PAM	ClpP mod	gsp ag	gsp antag
Entry for O=C(C[C@@H]1C/C=C/CC[C@H](Cc2ccc(F)cc2)C(=O)OCCNC1=O)N[C@H](CO)Cc1ccccc1 = nt	nt	0	nt	-0.6%	nt	0%
Entry for O=[N+]([O-])c1ccc2nonc2c1Nc1ccccc1 = -7.4	-2%	1	1	0.4%	1%[15.4 µM]	17%

Carrying on.
SMILES	Menin MLL FP FL	Sfp PPTase inh	CtBP-E1A inh	TRPV1 PAM	ClpP mod	gsp ag	gsp antag
COc1cccc(/C=C/c2nc(C#N)c(NCC(C)C)o2)c1	1.7	-8%	nt	-6	4.3%	15%	-15%
COC(CNC(=O)c1ccc2c(c1)ncn2-c1cccc(C)c1)OC	6.8	10%	8	10	nt	20%	1%
COc1ccc(CCNC(=O)CSC2=NS(=O)(=O)c3cc(F)ccc3N2)cc1OC	nt	nt	-23	nt	-1.4%	1%	nt
CCCNC(=O)c1c(CSc2ccc(Cl)cc2)noc1C(=O)NCc1ccccc1	nt	nt	-6	nt	-3.0%	-48%[inhibitor]	-7%
O=C(NC(=S)NC1CCSC1=O)c1ccccc1 (configuration not stated)	2.8	0%	nt	-9	-0.6%	3%	8%
COc1cccc(OC)c1OCCCCN1CCCCC1	-1.6	-4%	13	-8	-1.1%	?	3%
O=C1COc2ccc(S(=O)(=O)N3CCN(c4ccccc4)CC3)cc2N1	nt	21%	14	-1	0.8%	25%	2%
CC(Sc1nnc(COc2ccc(Cl)cc2)n1Cc1ccccc1)C(=O)O (configuration not stated)	-3.0	4%	3	3	0.8%	-2%[15.4 µM]	2%
N/C(=N\OC(=O)COc1ccccc1Cl)c1ccc(Cl)cc1	-0.3	-6%	32	9	1.4%	-41%[inhibitor]	-5%
Cc1cc(NC(=O)CCCN2C(=O)c3cccnc3C2=O)no1	2.1	-10%	-6	?	-1.8%	?	0%
Cc1cccc(NC(=O)CSCC(=O)Nc2cccc(S(=O)(=O)N3CCCCCC3)c2)c1	nt	nt	3	-1	-3.6%	-3%[15.4 µM]	-9%
COc1ccc2nc(C3CCCCC3)c3c(c2c1)CCC3	nt	nt	11	nt	-13%	nt	-11%
Cc1cccc(C2c3[nH]c4ccccc4c3CCN2C(=O)c2cc(CC(C)C)nc(C)n2)n1 (configuration not stated)	-7.3	10%	2	4	nt	-44%[inhibitor]	-8%
Cc1c(NC(=O)c2cccc(NC(=O)Cc3ccccc3Cl)c2)c(=O)n(-c2ccccc2)n1C	nt	nt	1	nt	-2.0%	?	nt
Cc1nn(Cc2ccc(Cl)cc2)c(=O)n1N(C)c1ncc(C(F)(F)F)cc1Cl	-0.5	2%	6	-14	7.2%	-5%	-2%
CCOC(=O)c1ccc(NC(=O)CCN2C(=O)C3CC=CCC3C2=O)cc1 (configuration not stated)	nt	nt	-2	5	0.0%	-3%[15.4 µM]	3%
CCOC(=O)CCCNC(=O)COC(=O)/C=C/c1ccc2c(c1)OCO2	-0.3	-3%	6	2	-25%	-29%	1%
COc1ccc2[nH]c3c(c2c1)CCn1c-3nc2ccccc2c1=O	5.5	12%	4	-10	-23%	-24%	4%
O=C(O)c1ccc(Cl)c(S(=O)(=O)NC(Cc2ccccc2)C(=O)O)c1 (configuration not stated)	-0.1	2%	0	-5	nt	?	5%
